rRNA inh HTS: inhibitors of bacterial rRNA selective over humanized ribosomes; E. coli WT GFP vs humanized-ribosome RFP mutants, fluorescence, 24 h; hits give low values; DMSO median 0, no signal -100; GFP signal change (wild-type ribosome), % (no concentration beside the values); 350,000 tested, 1.6% active;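 active = significant combined selectivity score with lowered wild-type GFP, culture density cut under 30%, mutant RFP and density less affected; inactive = any of these conditions unmet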; also: one replicate is shown; some compounds called inactive have numbers as strong as hits
B2AR ag: activates human beta-2 adrenergic receptor causing internalization. P07550. Am2.2-beta2AR cells, FAP receptor internalization, flow cytometry; reference of the scale not given here. response, % (test concentration not listed). 340,000 tested, 0.43% active. AID 504454;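 active = response above a set limit, near 3 SD of response in nonfluorescent compounds, cut at about 42% in these data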;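 also: stock transfer was 100 nL into about 11 µL; a reference agonist was the positive control; negative values mostly stem from fluorescent compounds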
Target sequence (P07550 whole entry, looked up): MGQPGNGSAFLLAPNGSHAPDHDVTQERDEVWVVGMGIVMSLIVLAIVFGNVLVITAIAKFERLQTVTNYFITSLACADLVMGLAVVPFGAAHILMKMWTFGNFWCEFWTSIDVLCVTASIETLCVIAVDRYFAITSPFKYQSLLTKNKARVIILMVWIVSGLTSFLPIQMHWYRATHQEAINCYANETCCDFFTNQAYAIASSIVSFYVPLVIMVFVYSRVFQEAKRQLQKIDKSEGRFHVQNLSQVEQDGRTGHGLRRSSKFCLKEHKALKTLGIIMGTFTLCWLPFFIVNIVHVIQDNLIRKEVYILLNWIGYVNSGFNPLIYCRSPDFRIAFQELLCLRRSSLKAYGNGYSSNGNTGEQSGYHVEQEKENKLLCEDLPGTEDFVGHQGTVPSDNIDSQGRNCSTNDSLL
ALR inh: blocks human ALR sulfhydryl oxidase activity | P55789 | 290,000 tested, 3.8% active | inhibition, % (concentration not given with the values) | purified ALR, DTT oxidation, H2O2 HRP-luminol luminescence | AID 485317;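 active = mean and each replicate at 75% or more; inconclusive = only one of the two met; inactive = neither met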;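 also: stock transfer was 7.5 nL into about 7.5 µL; 0% = neutral wells and 100% = wells with inactivated enzyme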
Target sequence (P55789 whole entry, looked up): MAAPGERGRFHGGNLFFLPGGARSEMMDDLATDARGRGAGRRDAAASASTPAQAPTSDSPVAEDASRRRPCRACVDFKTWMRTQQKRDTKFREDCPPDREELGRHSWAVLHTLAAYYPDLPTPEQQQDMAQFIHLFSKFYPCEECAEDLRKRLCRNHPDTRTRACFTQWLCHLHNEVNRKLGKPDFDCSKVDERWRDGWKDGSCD
Bfl-1 A1 inh: inhibitors of the anti-apoptotic protein A1, read as caspase activation. MEF A1-2A-BIM cells, Caspase-Glo 3/7 luminescence, 3 h; percent of clofoctol response, vehicle zero. caspase activation, % (concentration not given with the values). 330,000 tested, 0.066% active. AID 2462;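 active = over half of replicate activation scores above 10%, or exactly half above 10 with the replicate mean above 10; inconclusive = replicate mean below 10 yet half the replicates above 10; inactive = over half of replicates below 10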;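 also: wells of about 30 µL received 50 nL stock; many hits fall short of the cut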
LANA-H2A inh: blocks KSHV LANA binding to histone H2A/H2B. Q9QR71. cell-free LANA-H2A/H2B peptide, fluorescence polarization. inhibition, % (concentration not given with the values). 320,000 tested, 0.6% active. AID 2629; in the data active = inhibition mostly above about 10%, no sharp cut-off; inactive = mostly below about 6.7%;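 also: stock transfer was 7.5 nL into about 10 µL; 0% = median of vehicle wells and 100% = median of positive control wells; one replicate is shown; the record names a cut of 25% in any replicate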
Calb FLC: C. albicans growth modulation with fluconazole | growth inhibition, % (test concentration not listed) | AID 1979 | 300,000 tested, 0.57% active | C. albicans CaCi-2 (fluconazole-resistant clinical isolate) + fluconazole, Alamar Blue growth, 48 h;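 active = most replicates above 75%; inconclusive = exactly half above 75%; inactive = most below 75%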;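 also: all wells also contain fluconazole at 8 µg/ml as a sub-toxic cotreatment; 0% = median of DMSO wells and 100% = median of geldanamycin control wells; wells of about 8 µL received 7.5 nL stock; the first replicate is given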
T cruzi repl: T. cruzi replication inhibition; T. cruzi beta-gal in NIH3T3, luminescence, 90 h; inhibition, % (no concentration beside the values); AID 1885; 300,000 tested, 1.4% active;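 active = mean inhibition across valid replicates above about 55%, limit read from the data; inconclusive = mean below that limit but half or more replicates reach it; inactive = mean below it, under half of replicates reach it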;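 also: signal also drops with host cell toxicity which is not excluded here; 0% = plate median of DMSO wells and 100% = zero luminescence signal; higher percent means less beta-gal luminescence so fewer parasites; stock transfer was 50 nL into about 50 µL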
Beta apoptosis: beta cell apoptosis inhibition; INS-1E cytokine-induced death, ATP luminescence, 48 h; percent of positive-control rescue, neutral wells zero; protection from apoptosis, % (test concentration not listed); 300,000 tested, 0.8% active; AID 435005;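 active = all replicates at 75% or more, or half of them and the mean; inconclusive = half reach 75% but not the mean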;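 also: 0% = cytokine-treated negative control wells and 100% = positive control rescue; higher means more ATP so stronger rescue from cytokine killing; wells of about 40 µL received 100 nL stock; the first replicate is given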
rRNA inh HTS OD600: also measured in rRNA inh HTS; calls as there; OD600 change, %; measured here: OD600 growth;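 optical density of the mix in the first replicate; 0 = DMSO median and -100 = no signal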
rRNA inh HTS RFP: recorded beside rRNA inh HTS, whose call it bears; RFP signal change, %; measured here: RFP humanized mutant strains;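 first replicate; 0 = DMSO median and -100 = no signal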
An asterisk follows results filed as active; ? = inconclusive; / = not tested or not shown.

SMILES	rRNA inh HTS	rRNA inh HTS OD600	rRNA inh HTS RFP	B2AR ag	ALR inh	Bfl-1 A1 inh	LANA-H2A inh	Calb FLC	T cruzi repl	Beta apoptosis
O=C(c1ccc2c(c1)N(Cc1ccc(F)cc1)C(=O)c1ccccc1S2(=O)=O)N1CCN(c2ccccn2)CC1	-2	-7	-1.7	-2	0	0.5	0.0	20	22	9
Cc1ccc(NC(=O)c2cn(-c3cccc(C)n3)cn2)cc1	/	/	/	-5	-8	-7.6	-2.3	-13	12	0
Cc1ccc2nc(N(CCCN(C)C)C(=O)CCc3ccccc3)sc2c1	-50	-70	-23	14	4	-0.6	/	-4	45	0
O=C(CCNC(=O)c1ccc(Br)o1)NCc1ccccc1Cl	/	/	/	-7	0	0.7	-0.3	-18	6	0
O=C(Nc1cccnc1)c1cccc(NC(=O)c2ccco2)c1	/	/	/	-15	2	0.1	4.3	/	-2	-4
O=c1[nH]c2ccc(S(=O)(=O)Nc3ccc(Cl)cc3)cc2o1	-21	-30	-2.3	-2	-8	0.2	1.3	-24	-28	-6
O=C(c1cc(C2CC2)nn1-c1ccccc1)N1CCN(c2ccccc2O)CC1	/	/	/	6	36	0.5	-5.7	/	/	7
CCn1c(=O)c(C(=O)CN2CCCc3ccccc32)c(N)n(Cc2ccccc2)c1=O	/	/	/	6	-4	-0.1	-4.5	2	54	-2
Cn1cccc1CC(=O)N/N=C\c1ccccc1	5	8	2.8	0	66	0.9	1.4	-1	-9	-3
CCC(C)C(=O)Nc1nc(-c2ccc3c(c2)NC(=O)CO3)cs1 (stereo unspecified)	/	/	/	1	-3	-0.7	4.4	-8	-2	9
CCCC(=O)N1CCN(c2ccc(NC(=O)c3cccs3)cc2)CC1	0	-2	4.4	8	15	-0.7	-1.5	12	-6	4
O=C(COC(=O)Cn1c(C(F)(F)F)nc2ccccc21)Nc1ccc2c(c1)OCCO2	/	/	/	2	-12	-0.3	5.3	4	-11	-4
N#C/C(=C\c1cccnc1)C(=O)NC1CCCCC1	/	/	/	8	/	-0.6	/	-5	-6	-4
COc1ccc(C2CC(c3cccs3)=NN2C(=O)CSc2nc(=O)n3ccc(C)cc3n2)cc1 (stereo unspecified)	1	0	0.8	5	-5	-0.7	0.5	2	37	9
COc1ccc(NC(=O)CCS(=O)(=O)c2cccc3nonc23)cc1	0	8	0.8	0	/	0.8	-5.4	-11	-11	-5
CCc1cc(=O)oc2cc(OC(=O)c3ccco3)ccc12	8	-5	-0.5	-11	16	0.4	-2.6	10	0	-7
O=C(CCC(=O)N1CCOc2ccc(Cl)cc21)NCCN1CCOCC1	5	6	-2.4	0	-5	-0.1	-0.9	-2	0	0
c1ccc(OCc2nn3c(-c4ccncc4)nnc3s2)cc1	/	/	/	-8	-1	-0.3	4.1	6	9	2
CCOC(=O)c1nn(-c2ccc(Cl)cc2)cc1O	4	0	-0.4	10	4	-1.3	-1.2	-18	1	-3
O=C(O)c1[nH]c2ccc([N+](=O)[O-])cc2c1-c1ccccc1	-10	-9	-4.0	9	8	-0.6	-3.8	0	-10	-5
COc1ccc(CN(C(=O)Cn2nnc(-c3ccc(C)o3)n2)C(C(=O)NCC2CCCO2)c2ccco2)cc1 (stereo unspecified)	21	19	0.5	2	-16	-0.3	-2.7	18	-8	-1
COc1ccc(CC(=O)NCc2nnc(SCC(=O)Nc3ccccc3)n2C)cc1	0	4	1.2	3	3	0.5	4.5	23	-5	-2
CN(c1ccc(OC(=O)c2ccc(-n3cncn3)c([N+](=O)[O-])c2)cc1)S(=O)(=O)c1ccccc1	-1	-1	-1.2	5	1	0.6	1.2	/	/	-1
C=CC[C@@H](CC(=O)N(CCO)Cc1ccccc1)C(=O)N[C@H](COC(=O)[C@@H](CC=C)Cc1ccc(F)cc1)c1ccccc1	5	13	1.6	2	-2	0.8	-3.0	/	/	-11
COc1ccccc1C(=O)NNC(=O)C1CCN(C(=O)OC(C)(C)C)CC1	8	5	-0.4	2	-10	-0.2	-2.9	-4	15	-3

The closing 4 records of the part before lead into the next.
SMILES	rRNA inh HTS	rRNA inh HTS OD600	rRNA inh HTS RFP	B2AR ag	ALR inh	Bfl-1 A1 inh	LANA-H2A inh	Calb FLC	T cruzi repl	Beta apoptosis
COc1ccc(CC(=O)NCc2nnc(SCC(=O)Nc3ccccc3)n2C)cc1	0	4	1.2	3	3	0.5	4.5	23	-5	-2
CN(c1ccc(OC(=O)c2ccc(-n3cncn3)c([N+](=O)[O-])c2)cc1)S(=O)(=O)c1ccccc1	-1	-1	-1.2	5	1	0.6	1.2	/	/	-1
C=CC[C@@H](CC(=O)N(CCO)Cc1ccccc1)C(=O)N[C@H](COC(=O)[C@@H](CC=C)Cc1ccc(F)cc1)c1ccccc1	5	13	1.6	2	-2	0.8	-3.0	/	/	-11
COc1ccccc1C(=O)NNC(=O)C1CCN(C(=O)OC(C)(C)C)CC1	8	5	-0.4	2	-10	-0.2	-2.9	-4	15	-3
O=C(COC(=O)/C=C/c1ccccc1)NC1CCCC1	8	10	-2.0	2	-4	-0.2	-2.7	/	/	-5
COC(=O)C(C(=O)Nc1ccc(OC)cc1)C1CCCCCC1 (stereo unspecified)	/	/	/	-2	1	0.5	0.0	?	-2	5
Clc1ccc2c(N/N=C/c3ccc(Br)cc3)ccnc2c1	/	/	/	61*	-45	0.8	-4.8	4	47	54
CCN1CCN(C(=O)c2ccc(OC)c(S(=O)(=O)Nc3ccc(C)cc3)c2)CC1	13	12	0.7	-2	1	2.4	0.0	-12	15	0
O=C(c1ccco1)N1CCN(C(c2cccs2)c2nnnn2C2CCCCC2)CC1 (stereo unspecified)	1	-1	4.2	0	-2	0.0	-2.7	-4	31	3
COc1c(/C=N/Nc2ccc([N+](=O)[O-])cc2[N+](=O)[O-])c(C)nn1-c1ccccc1	/	/	/	0	-12	-0.2	5.0	-3	-3	3
Cc1csc(=Nc2cccnc2)n1Cc1ccco1	-1	-4	0.7	-7	34	0.2	3.4	4	4	/
O=C(COC(=O)COc1ccccc1)NCCC1=CCCCC1	10	7	0.0	7	-7	2.0	2.4	/	/	2
COc1ccccc1C1NC(=O)NC(C)=C1C(=O)Nc1cccc(C)c1C (stereo unspecified)	5	-6	-1.6	0	-7	0.4	3.4	4	-18	0
Cc1ccc(CNC(=O)CC2C(=O)Nc3c2c(=O)n(C)c(=O)n3Cc2ccccc2)cc1 (stereo unspecified)	/	/	/	-8	0	0.3	-2.5	7	-9	-1
CCCc1cc(=O)n2[nH]cc(-c3ccc(Cl)cc3)c2n1	-44	-74	-9.9	19	99*	0.0	-1.3	-1	-62	80*
CCCNC(=O)c1onc(CSc2ccccn2)c1C(=O)NCCC	/	/	/	-10	3	-0.5	1.5	-6	-13	6
O=c1nc(N2CCCCC2)nc2n1CCO2	/	/	/	3	6	?	-0.4	0	-9	3
COc1ccc2[nH]c(=O)c(CN(C(=O)c3ccco3)C(C)C)cc2c1	12	6	-2.8	8	-23	1.0	7.3	0	-10	-2
COC(=O)c1ccc(COc2ccc(/C=C(\C#N)c3nc4ccccc4[nH]3)cc2OC)o1	/	/	/	43*	-4	-0.7	-1.3	79*	40	-3
O=C(N/N=C/c1ccc(N2CCOCC2)cc1)C1COc2ccccc2O1 (stereo unspecified)	-6	-5	1.0	-4	3	0.0	-3.1	-27	-10	-5
Cc1ccc(N2C(=O)SC(Cc3ccccc3)C2=O)cc1 (stereo unspecified)	-1	5	3.4	-4	12	-0.3	5.5	8	1	-2
O=C(CCSc1ccccc1Cl)NNC(=O)c1ccncc1	8	4	-0.8	-4	-2	0.0	6.8	-1	-8	2
COC(=O)c1sc2nc(SCc3ccccc3C#N)n(N)c(=O)c2c1C	0	-1	-1.4	7	-3	-0.2	0.8	-16	-2	-1
COc1cccc(NC(=O)C2CC(=O)N(Cc3ccc(C)cc3)C2)c1 (stereo unspecified)	-9	0	2.3	-1	0	-0.4	2.1	-11	-1	0
Cn1c(C(=O)Nc2ccc3c(c2)OCO3)cc2c(=O)n(C)c3ccccc3c21	7	8	-3.4	4	-8	-0.5	1.7	9	13	5
CNC(=O)c1cc(Nc2nnc(-c3ccc(O)cc3)c3ccccc23)ccc1OC	-38	-42	-7.0	6	98*	-0.5	0.5	17	18	5
CCn1c(Cc2ccccc2)nnc1SCc1cccc(C(=O)O)c1	/	/	/	2	/	2.2	1.6	5	2	-11
CN1CCN(CC(=O)Nc2ccccc2Oc2ccccc2)CC1	/	/	/	6	1	0.7	1.8	7	2	-12
O=C(O)c1cccnc1SCc1cn2cc(Br)ccc2n1	4	-1	0.9	3	62	-0.4	-1.8	8	-2	-3

Whole records, quoted from the list. Order of values: rRNA inh HTS | rRNA inh HTS OD600 | rRNA inh HTS RFP | B2AR ag | ALR inh | Bfl-1 A1 inh | LANA-H2A inh | Calb FLC | T cruzi repl | Beta apoptosis
O=c1nc(N2CCCCC2)nc2n1CCO2 in the list: / | / | / | 3 | 6 | ? | -0.4 | 0 | -9 | 3
O=C(c1ccco1)N1CCN(C(c2cccs2)c2nnnn2C2CCCCC2)CC1 (stereo unspecified) in the list: 1 | -1 | 4.2 | 0 | -2 | 0.0 | -2.7 | -4 | 31 | 3
CN(c1ccc(OC(=O)c2ccc(-n3cncn3)c([N+](=O)[O-])c2)cc1)S(=O)(=O)c1ccccc1 in the list: -1 | -1 | -1.2 | 5 | 1 | 0.6 | 1.2 | / | / | -1

The listing picks up; the two compounds before the break are reprinted first.
SMILES	rRNA inh HTS	rRNA inh HTS OD600	rRNA inh HTS RFP	B2AR ag	ALR inh	Bfl-1 A1 inh	LANA-H2A inh	Calb FLC	T cruzi repl	Beta apoptosis
CN1CCN(CC(=O)Nc2ccccc2Oc2ccccc2)CC1	/	/	/	6	1	0.7	1.8	7	2	-12
O=C(O)c1cccnc1SCc1cn2cc(Br)ccc2n1	4	-1	0.9	3	62	-0.4	-1.8	8	-2	-3
CCOC(=O)N1CCN(C(=O)c2cc(-n3cnnc3)ccc2Cl)CC1	/	/	/	-7	-6	1.0	2.9	33	-16	-3
O=C(N1CCOCC1)N1CCN(S(=O)(=O)c2ccc(F)cc2)CC1	-7	-28	0.2	4	-8	1.4	-7.3	-2	-6	0
O=C(Nc1cccn2ncnc12)C(F)(F)F	13	15	1.4	0	-17	-1.5	2.6	23	-16	-1
C/C(=N\Nc1nncc2ccccc12)c1ccc(OCC(=O)N(C)C)cc1	-14	-3	1.4	-7	-3	-1.7	-5.3	-5	-13	-6
COc1ccc([N+](=O)[O-])cc1NC(=O)CSc1nncn1-c1ccccc1	10	1	2.1	-17	5	-1.1	-2.7	-16	-6	-1
CCn1c(SCc2ccccc2)nc2c1c(=O)[nH]c(=O)n2C	-7	-18	-3.1	-2	-23	0.4	-2.7	4	-16	-1
CC(=O)c1ccc(NC(=O)C2CCCN(S(=O)(=O)c3cccc4nonc34)C2)cc1 (stereo unspecified)	/	/	/	6	-4	0.1	-3.8	-4	-12	4
Nc1ccc(C(=O)N/N=C\C=C\c2ccc([N+](=O)[O-])cc2)cc1	7	8	0.2	4	-12	-0.4	0.8	-9	4	11

From PubChem

Not all compounds are listed; rates above refer to the full screens.
